Screening data (PubChem)
HPGD block: inhibitors of human 15-hydroxyprostaglandin dehydrogenase (HPGD); purified HPGD, NADH fluorescence kinetic, PGE2 substrate; actives 4.3% (n = 150,000); Potency, µM, for inactives: at the top dose activity change, negative = inhibition, most hits filed as inhibitors; active = well fitted inhibition curve with a large enough effect (not every such curve was filed as active); inconclusive = small, poorly fitted or top-dose-only effect, or another doubt; inactive = no such curve, though single readings can be large or run the other way;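 further: top concentration of the series not given in the record; plate controls included wells without enzyme; inactives centre near -10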
Target sequence (P15428 whole entry, looked up): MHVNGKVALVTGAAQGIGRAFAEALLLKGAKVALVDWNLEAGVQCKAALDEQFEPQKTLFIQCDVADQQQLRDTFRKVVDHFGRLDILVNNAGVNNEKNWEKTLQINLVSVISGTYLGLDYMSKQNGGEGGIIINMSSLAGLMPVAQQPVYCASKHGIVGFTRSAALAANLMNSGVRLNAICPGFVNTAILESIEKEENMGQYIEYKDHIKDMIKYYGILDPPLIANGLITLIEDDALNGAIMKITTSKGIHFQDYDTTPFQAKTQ
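NADH formation kinetics: reaction with 30 uM PGE2 and 1 mM NAD+ (final), 20 nM enzyme, Tris-HCl pH 8 with Tween 20, after 15 min compound preincubation at room temperature. Fluorescence change, last versus first of five reads.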
* marks the source's active call; other numbers are inactive results; ? = inconclusive. On the % scale 0 is the no-effect control and ±100 the full control effect; potency means the concentration at half of the fitted maximal effect. A portion of the library; the hit share may differ from the screen's.

| mol | HPGD block |
| --- | --- |
| Cn1c(SCC(=O)N2CCc3ccccc3C2)nnc1-c1ccncc1 | -11.1% |
| Cc1cc(C)c(NC(=O)CS(=O)CC(=O)NCCCc2ccccc2)c(C)c1 (configuration not stated) | -6.1% |
| O=C(NNC1=NCCC1)c1cccc(S(=O)(=O)N2CCCC2)c1 | -10.2% |
| O=C(N1CCC(O)(c2cccnc2)CC1)C12CC3CC(CC(C3)C1)C2 | -7.4% |
| C#CCn1c(=NC(=O)c2ccccc2[N+](=O)[O-])sc2cc(S(C)(=O)=O)ccc21 | -15.9% |
| CC(C)NC(=O)C(=O)NC1CCCCCC1 | -2.4% |
| Fc1ccc2nc3n(c2c1F)CCCCCC3 | -2.1% |
| NC(=O)C1(N2CCCCC2)CCN(Cc2ccccc2Cl)CC1 | 1.0% |
| Cc1ccc(NC(NC(=O)c2ccccn2)C(Cl)(Cl)Cl)cc1 (configuration not stated) | -10.8% |
| CCOP1(=O)C=C(C(C)(C)C)OC1c1ccc(F)cc1 (configuration not stated) | -3.2% |
| Cc1cc(C(F)F)n2nc(C(=O)Nc3ccc(F)cc3F)nc2n1 | -8.7% |
| OCCNc1nc(C2CC2)nc2c1nnn2Cc1ccccc1Cl | -11.4% |
| Cn1c(-c2c(N)n(-c3ccccc3)c3nc4ccccc4nc23)nc2ccccc21 | -26.0% |
| COc1cc(OC)c(C(=O)NC2CCCCCC2)cc1OC | -18.1% |
| CC(C)Nc1ncnc2c1nnn2Cc1ccccc1 | 28.2µM* |
| COc1ccc(S(=O)(=O)N2CCC(C(=O)NCCc3ccc4c(c3)OCO4)CC2)cc1 | -9.3% |
| Cn1nnc(C(O)CN2CCOCC2)n1 (configuration not stated) | -5.6% |
| CCc1c(C)sc(NC(=O)c2ccccc2[N+](=O)[O-])c1C(N)=O | -11.9% |
| Cc1ccc(C)c(C(=O)CCC(=O)Nc2cccnc2)c1 | -6.5% |
| Brc1ccccc1-c1csnn1 | -3.6% |
| CC(=O)N1CCCc2cc(S(=O)(=O)NCCC3=CCCCC3)ccc21 | -11.0% |
| O=C1C2C3C=CC(CNS(=O)(=O)c4ccccc4)(O3)C2C(=O)N1c1ccc(Cl)cc1 (configuration not stated) | 22.4µM* |
| COCCn1c(SCC#N)nnc1-c1ccc(OC)cc1 | -7.9% |
| CCCC(=O)N1CC2(CCC)CN(C(=O)CCC)CC(CCC)(C1)C2=O | -12.9% |
| Cc1ccccc1C(=O)NC(=S)Nc1ccc(S(=O)(=O)N2CCOCC2)cc1 | -7.8% |
| O=C(O)c1cc2c(ccc3ccccc32)oc1=O | ? |
| Cc1ccc(-n2[nH]c(C)c(/C=N/Nc3ccc([N+](=O)[O-])cc3[N+](=O)[O-])c2=O)cc1C | -29.1% |
| CCCCNC(=O)CC(=O)Nc1ccccc1C(=O)O | ? |
| CCC/C=C(\CCC)C(NC(=O)c1ccccc1)c1ccccc1 (configuration not stated) | -10.7% |
| CC1C(C#N)=C(N)OC2=C1C(=O)CCC2 (configuration not stated) | -10.1% |

Reprinted from the part before: 4 compounds, then new ones.
| mol | HPGD block |
| --- | --- |
| Cc1ccc(-n2[nH]c(C)c(/C=N/Nc3ccc([N+](=O)[O-])cc3[N+](=O)[O-])c2=O)cc1C | -29.1% |
| CCCCNC(=O)CC(=O)Nc1ccccc1C(=O)O | ? |
| CCC/C=C(\CCC)C(NC(=O)c1ccccc1)c1ccccc1 (configuration not stated) | -10.7% |
| CC1C(C#N)=C(N)OC2=C1C(=O)CCC2 (configuration not stated) | -10.1% |
| Cc1cc(C)c(C)c(S(=O)(=O)Nc2ccc(OCC(=O)O)cc2)c1C | -6.7% |
| Fc1cccc(Cl)c1Cn1nnc2c(-n3ccnc3)ncnc21 | -9.0% |
| O=C1CN(C(=O)COC(=O)c2ccccc2NCc2ccco2)c2ccccc2N1 | ? |
| O=S1(=O)N=C(N2CCCc3ccccc32)c2ccccc21 | -28.4% |
| O=C(NC1CC1)c1sccc1-n1cccc1 | -2.0% |
| CCOC(=O)C1(CC)NC(c2ccc(N(C)C)cc2)C2C(=O)N(C)C(=O)C21 (configuration not stated) | -13.4% |
| Cn1cc(S(=O)(=O)NCc2ccco2)c(=O)n(C)c1=O | -0.9% |
| Cc1ccc(C)c(NC(=O)CSc2nc3[nH]ncc3c(=O)[nH]2)c1 | -18.8% |
| Cc1cc(NC(=O)CSc2nc3ccccc3n2CC(=O)N2CC(C)CC(C)C2)no1 (configuration not stated) | 0.0% |
| COc1ccc(OCC(=O)Nc2nc3ccccc3[nH]2)cc1 | -6.2% |
| Cc1ccc(C2Nc3ccc4ccccc4c3C3=C2C(=O)CC(C)(C)C3)o1 (configuration not stated) | ? |
| COc1ccccc1C(=O)NCC(=O)OCC(=O)c1ccc2c(c1)-c1ccccc1C2 | -12.6% |
| COc1ccccc1-c1cc(C(F)(F)F)nc(S(=O)(=O)CCCC(=O)O)n1 | ? |
| O=C(Oc1oc(-c2ccco2)nc1C=Nc1ccccc1)c1ccoc1 | 5.01µM* |
| Cc1ccc2nc(-c3ccc(NS(=O)(=O)c4ccc(F)cc4)cc3)sc2c1 | ? |

Reformatted: three of the compounds above.
> Brc1ccccc1-c1csnn1
  HPGD block = -3.6%
> CC(=O)N1CCCc2cc(S(=O)(=O)NCCC3=CCCCC3)ccc21
  HPGD block = -11.0%
> O=C1C2C3C=CC(CNS(=O)(=O)c4ccccc4)(O3)C2C(=O)N1c1ccc(Cl)cc1 (configuration not stated)
  HPGD block = 22.4µM*

Carrying on.
| mol | HPGD block |
| --- | --- |
| CCOC(=O)c1ccc(NC(=S)NC(=O)c2nn(CC)cc2Br)cc1 | -5.5% |
| COc1ccc(Oc2nc(-c3ccccc3)ncc2S(=O)(=O)c2ccccc2)cc1 | 0.2% |
| CCOc1cc(C(=O)Nc2nnc(CC)s2)ccc1OCC(=O)N1CCOCC1 | -18.8% |
| CCc1ccc(NC(=O)CSc2nnc(CNC(=O)c3c(F)cccc3Cl)o2)cc1 | -5.2% |
| COC(=O)C1=C(C)NC2=C(C(=O)CCC2)C1c1cn(Cc2ccc(Br)cc2)nc1-c1ccccc1 (configuration not stated) | ? |
| C#CCOC(=O)/C(=C/C=C/c1ccccc1)NC(=O)c1ccccc1 | ? |
| Cc1csc(NC(=S)Nc2cccc(Cl)c2)n1 | -15.7% |
| Cc1ccc(-c2nc(CS(=O)CC(=O)NC3CCC(C)CC3)c(C)o2)cc1 (configuration not stated) | -9.5% |
| O=C(c1cnccn1)N1CCN(c2ccccc2F)CC1 | -11.5% |
| Cc1ccc(NC(=O)C(Cc2ccccc2)NC(=O)OCc2ccccc2)cc1C (configuration not stated) | -6.9% |
| COc1ccc(C2NCCc3c2[nH]c2ccccc32)cc1COc1ccc(F)cc1 (configuration not stated) | -11.8% |
| CCCCOc1ccc(Cl)cc1CSc1nnc(C)n1N | -14.2% |
| CSc1nc(C)cc(OCC(=O)n2nc(C)cc2C)n1 | 1.2% |
| CC1=CC(=O)C=C(C)C1=NOC(=O)/C=C\c1ccccc1 | -12.8% |
| Cc1sc2nc(C3CC3)nc(SCC(=O)N3CCCc4ccccc43)c2c1C | -4.2% |
| O=C(N/C(=C/c1cccnc1)C(=O)N1CCOCC1)c1ccccc1 | 2.9% |
| Oc1c(Cl)cc(Cl)cc1C(C#Cc1ccccc1)N1CCOCC1 (configuration not stated) | -12.1% |
| O=C(CC1S/C(=N\S(=O)(=O)c2ccc(F)cc2)N(c2ccccc2)C1=O)Nc1ccccc1 (configuration not stated) | -5.4% |
| CC[N+](CC)(CC)C/C(N)=N/O | -3.9% |
| COc1ccc(Cc2nc(-c3cccs3)no2)cc1OC | -6.5% |
| CCN1CCCC1CN(Cc1cc2ccc(C)cc2[nH]c1=O)C(=S)Nc1cccc(OC)c1 (configuration not stated) | -14.2% |
| CC(=O)Nc1ccc(S(=O)(=O)Nc2ccc(Cl)nn2)cc1 | -12.4% |
| COc1ccc(NC(=O)c2ocnc2C)cc1OC | -9.3% |
| CN(Cc1ccccc1)C(=O)c1cnc2n(c1=O)CCS2 | -7.5% |
| CC(=O)OCC1OC(n2ccc(=O)[nH]c2=O)C(O)C1O (configuration not stated) | -3.6% |
| COC(=O)c1sccc1NC(=O)CSc1nnnn1-c1ccccc1F | -15.9% |
| C=C(C)COc1ccc2oc(C)c(C(=O)OCCOC)c2c1 | -14.4% |
| CC12CC3CC(C)(C1)CC(C(=O)Nc1nn[nH]n1)(C3)C2 | -4.4% |
| COc1ccc(OC)c(S(=O)(=O)NCCO)c1 | -13.0% |
| CC(C)Oc1ccc2c(=O)cc(-c3ccccc3)oc2c1 | -19.7% |
| Cc1ccc(N=Nc2c(C)[nH]n(C(N)=S)c2=O)cc1C | -19.0% |
| O=C(Nc1cccc2cccnc12)c1cccnc1 | -8.3% |
| CCOC(=O)C1=C(N)OC2=C(C(=O)CCC2)C1c1ccc(C)s1 (configuration not stated) | -12.5% |
| CCN1C(=O)C2(C(C#N)=C(N)Oc3n[nH]c(-c4ccc(Cl)cc4)c32)c2ccccc21 (configuration not stated) | 7.7% |
| CCC(=O)OC1(C)C(=O)C=C2C=C(CCCCNC(=O)OC(C)(C)C)OC=C2C1=O (configuration not stated) | -15.8% |
| COc1ccccc1NC(=O)N1CCCC1C(=O)NC12CC3CC(CC(C3)C1)C2 (configuration not stated) | -7.1% |
| O=C1c2ccccc2C(=O)N1CSc1ncccn1 | -17.5% |
| O=C(CN1C(=O)c2ccccc2S1(=O)=O)NCc1ccc2c(c1)OCO2 | -14.0% |
| c1ccc(-c2nc(NCc3ccco3)c3ccccc3n2)cc1 | -14.8% |
| Cc1nn2c(-c3cccc(NC(=O)c4ccco4)c3)nnc2c2ccccc12 | -26.6% |
| COC(=O)C1=C(C)N(C(C)c2ccccc2)C(=O)C1 (configuration not stated) | -6.1% |
| Cc1ccc(NCc2nnc(SCC(=O)N3c4ccccc4Sc4ccccc43)o2)c(C)c1 | -6.6% |
| CC1CCN(c2ccccc2NC(=S)NC(=O)c2cccs2)CC1 | -13.2% |
| CCOC(=O)CN1CC23C=CC(O2)C(C(=O)Nc2cc(OC)ccc2OC)C3C1=O (configuration not stated) | -9.4% |
| CCN1C(=O)C(C(=O)Nc2ccc(OC)cc2)C2CC1(C)Oc1ccccc12 (configuration not stated) | -6.1% |
| Cc1ccc(CNC(=O)c2cccc(OCc3c(C)noc3C)c2)cc1 | -23.4% |
| Cc1ccc2occ(C3N[C@H](C(=O)O)CS3)c(=O)c2c1 (some centres not stated) | -8.9% |
| COc1cc2c(c(OC)c1OC)-c1ccc(OC)c(=O)cc1C(NC(C)=O)CC2 (configuration not stated) | -9.1% |
| CCc1nc(SCC(=O)c2ccc3c(c2)OCCO3)c2ccccc2n1 | ? |
| CCNS(=O)(=O)c1ccc(OC)c(C)c1 | -1.6% |
| O=C(O)C1CCCCN1S(=O)(=O)c1ccc2ccccc2c1 (configuration not stated) | 1.9% |
| O=C=Nc1ccc(Cc2ccc(N=C=O)cc2)cc1 | -3.0% |
| Cc1ccc(/C=N/NC(=O)CSCc2ccc(Cl)cc2)cc1 | -11.2% |
| CC1=Nc2ccccc2/C1=C\c1sc(Nc2ccc(C)cc2)nc1O | -5.8% |
| CC(/C=C1\SC(=S)N(NC(=O)c2ccccc2C)C1=O)=C\c1ccccc1 | -24.2% |
| O=C(COc1ccc2ccccc2c1)NCCc1ccc2c(c1)OCCO2 | -8.0% |
| COc1cc(C(=O)ON=C2C(C)=CC(=O)C=C2C)cc(OC)c1OC | -8.7% |
| C=CCn1c(=NC(=O)C2CC2)sc2cc(NC(C)=O)ccc21 | ? |
| COc1ccc(/C=N/n2c(=O)[nH]c3c([nH]c4ccc(Br)cc43)c2=O)cc1CN1CCOCC1 | -6.0% |
| COc1ccc(C2C(C(=O)N3CCCC3)CC(=O)N2c2ccc(OC)cc2)cc1 (configuration not stated) | 8.5% |

(next part)
| mol | HPGD block |
| --- | --- |
| O=C(OCC(=O)c1c[nH]c2ccccc12)C1=COCCO1 | -15.7% |
| Nc1nc(N)nc(-c2ccc(Cl)cc2)n1 | -6.7% |
| COc1ccc(CNC(=O)c2cccc(C)c2[N+](=O)[O-])cc1 | ? |
| O=c1ccn(Cc2ccccc2)c(=O)n1Cc1ccccc1 | -14.6% |
| COc1cc(NC(=S)NC(=O)c2c(OC)cccc2OC)ccc1NC(=O)c1cccs1 | -7.6% |
| Cc1cccc(C)c1NC(=O)/C(=C/c1ccco1)c1ccccc1 | -9.8% |
| Cc1cccc(Nc2nc(N)nc(CSc3nccc(C)n3)n2)c1 | 4.7% |
| CCN(CC)CCN1C(=O)C(=O)/C(=C(/O)c2ccc(OC)cc2)C1c1cccs1 (configuration not stated) | -17.4% |
| O=C(c1ccc(COc2ccccc2Br)o1)N1CCCCCC1 | 14.1µM* |
| COc1ccc(-c2ccc(/C=C3\C(=O)N(c4ccccc4)N=C3c3ccccc3)o2)c([N+](=O)[O-])c1 | -11.2% |
| O=C(CSc1nc(-c2ccccc2)cs1)N1CCc2ccccc21 | -8.4% |
| O=C(Nc1nnc(-c2ccccc2F)s1)C1CCCO1 (configuration not stated) | -20.1% |
| Cc1nn(-c2ccccc2)c(C)c1/C=N/NC(=O)c1cccs1 | -5.4% |
| CCC(=O)N1CCc2cc(Br)cc(S(=O)(=O)N3CCN(C(=O)c4ccco4)CC3)c21 | -14.1% |
| Cc1cc(C)n(CC(=O)N2c3ccccc3Sc3ccc(C(F)(F)F)cc32)n1 | -18.7% |
| O=C1CC(Nc2ccc(N3CCOCC3)cc2)C(=O)N1CCc1ccccc1 (configuration not stated) | -9.6% |
| Cc1ccc(-c2nc3nc4ccccc4nc3n2Cc2ccco2)cc1 | -24.4% |
| COc1nc(/C(N)=N/O)nc(N2CCCCC2)n1 | -9.7% |
